PrP 5UTR inh = suppresses PrP 5' UTR mRNA reporter expression | cell-based PrP 5' UTR mRNA reporter, plate reader | inhibition, % (concentration not given with the values) | 340,000 tested, 0.35% active | AID 488862;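 active = every replicate at 50% or more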;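 note: 0 = median of the neutral control wells; tested in H4 reporter cells; numbers are from one replicate; inactives centre near -14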
BJeLR viability = BJeLR cell viability loss. BJeLR (HRASV12) viability, CellTiter-Glo ATP luminescence, 48 h; reference of the scale not given here. inhibition, % (test concentration not listed). 300,000 tested, 0.17% active. AID 1554;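 active = replicate mean above 50%; inconclusive = above 50% but judged a plate artefact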;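 note: 50 nL library stock added to about 25 µL; numbers are from one replicate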
Bead autofluor = flagged as autofluorescent in microsphere protease counterscreen; AID 624483; 360,000 tested, 3.1% active; compound autofluorescence counterscreen, microsphere flow cytometry; active compounds read high; fluorescence intensity (no concentration beside the values);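 active = at least 3 SD above the mean of all compounds, about 16000 in these data; inconclusive = too few beads counted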;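 note: 100 nL of 1 mM stock went into each well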
ugtP null kill = growth inhibition of S. aureus ugtP deletion strain; S. aureus RN4220 ugtP deletion, OD600 growth, 16 h; some inactives read as strong as hits; growth inhibition, % (test concentration not listed); 330,000 tested, 0.54% active;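 active = z-score under -3 and OD600 up to 0.15 on both plates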;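 note: plate controls were untreated wells for no effect and antibiotic for full effect; wells of about 80 µL received 100 nL stock; the first replicate is given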
Mtb hypoxia rep = reduces hypoxia-regulated biosensor signal in M. tuberculosis; M. tuberculosis hypoxia-regulated fluorescent reporter, fluorescence; fluorescence inhibition, % (test concentration not listed); 300,000 tested, 0.1% active;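 active = 35 to 45% if threefold the growth effect, above 45% if 1.5-fold the growth effect; inactive = the rest, general growth blockers included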;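 note: wells of about 50 µL received 100 nL stock; 0% = vehicle wells and 100% = reference inhibitor wells; whole bacteria with a GFP reporter of the hypoxia response; strong numbers were not always called active; many hits fall short of the cut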
Sa RN4220 lethal = kills Staphylococcus aureus RN4220; inhibition, % (no concentration beside the values); 330,000 tested, 0.33% active; S. aureus RN4220 growth, OD600, 16 h; AID 1259311;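 active = z-score of -3 or lower and OD600 up to 0.18 on both plates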;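 note: plate controls were untreated cells for no effect and reference antibiotic for full effect; stock transfer was 100 nL into about 80 µL; one replicate is shown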
Mtb hypoxia rep growth = further read-out of Mtb hypoxia rep, marked with its call; growth inhibition, %; measured here: M. tuberculosis growth (absorbance);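 0% = vehicle and 100% = reference antibiotic; read after six days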
Numbers without * were called inactive; ? = inconclusive; · = no result given.

Values run as follows: PrP 5UTR inh, BJeLR viability, Bead autofluor, ugtP null kill, Mtb hypoxia rep, Mtb hypoxia rep growth, Sa RN4220 lethal
> CCn1cc(/C=N\NC(=O)c2ccc3c(c2)c(C)c(C)n3Cc2ccccc2)c(C)n1
 : -11, 35, 3541, ·, ·, ·, ·
> COc1ccc(NC(=O)N2CCN(C(=O)C3CCCO3)CC2)cc1 (stereo not drawn)
 : -13, -8, 5576, -3, -2, 2, -2.4
> COc1ccccc1CNC(=O)COc1cc2c(c3oc(=O)cc(C)c13)CCC(C)(C)O2
 : -9, -7, 5401, 16, ·, ·, 8.5
> CN(C(=O)CC1C(=O)NCCN1Cc1ccc(F)c(F)c1)C1CCCCC1 (stereo not drawn)
 : 7, 0, ?, -6, -1, -7, -6.9
> Cc1ccc2c(c1)C(=NOS(=O)(=O)c1ccccc1)CCS2
 : ·, ·, ·, -2, 5, 15, 4.1
> Cc1cccc(N2C(=O)N3C(c4ccc(F)cc4)C4C(=O)N(C5CCCCC5)C(=O)C4[C@]3(Cc3ccc(Cl)cc3)C2=O)c1 (stereo partly drawn)
 : ·, ·, ·, -18, 12, 6, 1.4
> CC(=O)N(C)C1=C(O)c2ccccc2C(=O)C1=O
 : -14, 2, 6488, 13, 10, 5, 7.2
> CC(C)c1ccc(NC(=S)NCCc2c[nH]c3ccccc23)cc1
 : -3, -2, 2097, -28, -2, 2, -5.4
> O=C1Nc2ccccc2N(O)N1c1cc(-c2ccccc2Cl)no1
 : -8, -4, 3645, -1, 10, 4, -0.3
> CCC(C)c1ccccc1NC(=O)c1cc(C)no1 (stereo not drawn)
 : -15, -15, 2910, 12, 12, -1, -4.1
> CCCOc1ccc(/C=N/Nc2cc(N3CCOCC3)ncn2)c(O)c1
 : 32, 2, 2491, ·, ·, ·, ·
> CCn1cc(C(=O)NCCCN2CCCC(C)C2)c(=O)c2cc(S(=O)(=O)N3CCOCC3)ccc21 (stereo not drawn)
 : -2, 8, 5808, -3, -8, 10, 0.2
> CN(CC(=O)Nn1cnnc1)S(=O)(=O)c1cc(Cl)ccc1Cl
 : -13, -23, 10142, 17, 8, 0, 4.6
> Cc1ccc2nc(NC(=O)c3ccccn3)sc2c1
 : 89*, 22, 4583, 3, 10, 5, 3.5
> O=C(c1ccc(-n2cncn2)c([N+](=O)[O-])c1)N1CCN(S(=O)(=O)c2ccccc2F)CC1
 : -21, -7, 5152, 2, 8, -8, 0.2
> O=C(NC1CCCCC1)C1CCN(S(=O)(=O)c2cccc3cccnc23)CC1
 : -21, 3, 4803, 10, ·, ·, 0.6
> CCCNC(=S)Nc1ccc(S(N)(=O)=O)cc1
 : -88, -7, 4743, 0, 5, 9, 7.4
> CCCCCCN(C(=O)CCCCCN1C(=O)NC(c2ccc(-c3ccccc3)cc2)C(C(=O)OCc2ccccc2)=C1C)C(C(=O)NCCCC)c1ccccn1 (stereo not drawn)
 : ·, -6, ·, -20, 14, 1, 1.3
> CCSc1ncc(Cl)c(C(=O)Nc2ccccc2C)n1
 : ·, -1, 4089, -7, -4, 5, -2.8
> O=c1c2oc3ccccc3c2[nH]c(=S)n1-c1ccccc1
 : -12, 13, 2081, -1, 5, 2, 3.3
> Cc1ccc(NC2c3ncccc3C(=O)N2Cc2ccc(F)cc2)cc1 (stereo not drawn)
 : ·, -6, 10645, -5, 8, 8, 1.6
> NC(=S)NNC(=O)c1cccc(Br)c1
 : ·, -5, ·, 8, 6, -2, 9.5
> CCOC(=O)C1(CCc2ccccc2)CCN(C(=O)Cc2nonc2C)CC1
 : -49, 4, 4558, -7, -4, 12, 1.6
> Cc1cccc(OCc2n[nH]c(=S)n2C2CCCCC2)c1
 : -9, 6, 7529, 5, 1, 6, 8.3
> CCCC(NC(=O)c1ccccc1)c1nc2ccccc2n1Cc1ccc(C(=O)OC)o1 (stereo not drawn)
 : -16, 1, 3373, -3, 10, 1, -14
> Cn1cc(S(=O)(=O)N2CCOCC2)cc1C(=O)Nc1cccc(Cl)c1
 : -11, -2, 4447, 0, 1, 2, -12
> CC(=O)N1c2ccc(S(=O)(=O)N3CCC(C(=O)NCc4ccccc4)CC3)cc2CC1C (stereo not drawn)
 : -4, -5, 5130, 7, 7, 4, 4.3
> COc1ccc(-n2c(C)cc(C(=O)CN3CCCCC3)c2C)cc1
 : -12, 8, 5052, 5, 5, 10, 0.9
> CCCC(=O)Nc1ccc2c(c1)nc(CCN1CCCCC1)n2C
 : -5, -1, 4514, 0, 12, 3, 2.5
> CCOC(=O)C1CCN(C(=O)CCS(=O)(=O)c2ccc3c(c2)n(C)c(=O)c(=O)n3C)CC1
 : 2, -3, 6020, -14, ·, ·, 2.3
> Cc1ccc2nc(NC(=O)COC(=O)c3ccco3)sc2c1
 : -18, 1, 5806, -8, 0, 10, 0.8
> Cc1[nH]c2ccccc2c1C=NNC(=O)CCC(=O)NCc1ccccc1
 : ·, ·, ·, 5, 7, 4, 7.2
> CCOC(=O)N1CCC(=C(C#N)C(=O)Nc2cc(OC)ccc2OC)CC1
 : -13, 9, 7203, 3, 11, 5, 0.8
> COc1ccc(C(=O)Nc2nc3nccc(-c4ccccc4)n3n2)cc1
 : -25, 4, 2002, -2, -1, 4, 0.7
> CCC(=O)c1cc2c(cc1NC(=O)c1ccccc1)OCCO2
 : -9, 0, 7961, 7, 9, 3, 5.5
> COc1ccc(/C=C/C(=O)NCCn2c(C)cc3ccccc32)cc1OC
 : -3, 3, 4309, 3, 4, 8, -9.5
> CC(=O)c1cccc(NC(=O)CSc2ncc(C(=O)Nc3ccccc3)c(=O)n2C)c1
 : -14, 10, ?, 2, 8, 0, -1.7
> CN1CCN(S(=O)(=O)c2cnccc2N2CCN(c3cccc(Cl)c3)CC2)CC1
 : -14, 6, 2216, -4, 15, 13, -1.2
> CC1(NC(=O)COc2ccccc2-c2ccccc2)CCS(=O)(=O)C1 (stereo not drawn)
 : 9, -4, 16681*, 1, 8, 9, 11
> O=C(NCc1cccc(C(F)(F)F)c1)N1CCN(C(=O)c2ccccc2)CC1
 : -12, ·, 8799, -2, 4, 9, 0.8
> Cc1cc(/C=N/NC(N)=O)c(C)n1C1CCCCC1
 : -26, 8, 5162, ·, ·, ·, ·
> CCC1CCCCN1S(=O)(=O)c1ccc2c(c1)CCN2C(C)=O (stereo not drawn)
 : -2, 6, 5049, 7, 6, 8, 8.1
> CC1CCc2c(sc(NC(=O)Cn3nc(C(=O)O)c4ccccc4c3=O)c2C#N)C1 (stereo not drawn)
 : 10, -2, ·, -17, -14, 5, 3.1
> C=CCOC(=O)C1CC=CCC1C(=O)Oc1ccc(F)cc1F (stereo not drawn)
 : -6, 3, 24043*, 6, 7, 11, 1.8
> CC(C)(CO)NC(=O)CC1C(=O)NCCN1Cc1ccc(-c2ccccc2)cc1 (stereo not drawn)
 : -20, -1, 4252, -2, 11, 6, 5.8
> COc1ccccc1NC(=S)N1CCc2cc(OC)c(OC)cc2C1
 : -24, -7, 2452, 6, 11, 4, 4.3
> CCN(CC)S(=O)(=O)c1ccc(NC(=O)c2ccccn2)cc1
 : -52, 5, 3173, 8, ·, ·, 5.0
> CC(C)(C)NC(=O)C1Cc2ccccc2CN1S(=O)(=O)c1ccc(F)cc1 (stereo not drawn)
 : -27, -9, 4477, -3, 6, 7, 4.0
> CCC(=O)c1ccc(OCC(=O)NC2CCCC2)cc1
 : -7, ·, 4051, 1, -5, 6, -0.9
> CC(C)CNc1nc(N)c([N+](=O)[O-])c(NCC2CCCO2)n1 (stereo not drawn)
 : -10, -14, 9635, 6, -1, 5, -0.3
> CCN(CC)C(=O)COc1ccc(C=O)cc1OC
 : -5, 3, 7478, -2, -4, -15, -3.3
> CC1CN(C(=O)c2cnn3c(C(F)F)cc(-c4ccccc4)nc23)CC(C)O1 (stereo not drawn)
 : -46, -1, 9360, 3, 9, 1, 1.3
> CCOc1ccc(N(CC(=O)NC2CCCC2)C(=O)CCCC(=O)Nc2ccccn2)cc1
 : -18, 0, 4222, 2, ·, ·, 26
> O=C(Nc1ccc2c(c1)nc1n2CCOC1)C1CCCCC1
 : -36, 10, 8237, 3, -1, -2, 3.3
> CCOC(=O)N1CCN(C(=O)CCC(=O)c2ccc(OCC)cc2)CC1
 : -18, -6, 5981, 19, 6, 4, 5.0
> Cc1cc(S(=O)(=O)N2CCOCC2)ccc1OCC(=O)N1CCOCC1
 : -13, 12, 3751, 4, -6, -14, -0.2
> C/C(=N\NC(=O)Cc1ccc(Br)cc1)c1cccnc1
 : -5, -5, 6365, ·, ·, ·, ·
> Cc1ccc(C(CCN)c2ccco2)cc1 (stereo not drawn)
 : -6, -21, 4029, -3, 0, 1, 3.8
> O=C(CCCc1c[nH]c2ccccc12)N[C@@H](Cc1c[nH]c2ccccc12)C(=O)O
 : -15, 5, 3296, 7, 8, -1, 2.9
> COc1cccc2cc(C(=O)c3ccccc3)oc12
 : -7, -11, 4094, 6, 9, 16, 7.5

Later entries.
Values run as follows: PrP 5UTR inh, BJeLR viability, Bead autofluor, ugtP null kill, Mtb hypoxia rep, Mtb hypoxia rep growth, Sa RN4220 lethal
> CCS(=O)(=O)N1CCC(C(=O)N2CCN(c3ccccc3)CC2)CC1
 : -51, -3, 7863, 2, 12, 7, 7.4
> CCn1c(SCC(=O)c2ccc(O)c(O)c2)nnc1-c1ccccc1OC
 : -4, -2, 2524, -8, ·, ·, 3.7
> CC(C)CCn1c(SCC#N)nc2c(sc3ccccc32)c1=O
 : -2, -8, 8887, 0, 5, 4, 1.2
> CCOc1cc(-c2noc(CCCC(=O)NC3CCCCC3)n2)ccc1OC
 : -3, -6, 5722, 14, -4, 6, 2.7
> OCC(O)C(O)C(O)c1cnn(-c2ccccc2)n1 (stereo not drawn)
 : -14, ·, 3748, 2, 2, 7, 2.2
> COc1ccc(C(=O)N2CC(=O)Nc3ccccc32)cc1S(=O)(=O)N1CCOCC1
 : ·, 1, 4037, 0, -11, 6, 3.9
> CC1CN(c2nc3c(c(=O)n(C)c(=O)n3C)n2Cc2c(Cl)cccc2Cl)CC(C)O1 (stereo not drawn)
 : -25, -2, 4723, 12, 0, 8, 2.6
> Cc1ccsc1/C=N/n1cnc2sc(C)c(C)c2c1=O
 : -32, -4, 3624, ·, ·, ·, ·
> O=C(CCN1CCOCC1)Nc1ccc(Br)cc1C(=O)c1ccccc1
 : -53, -15, 3211, 1, 2, 4, 5.5
> CC(=NNC(=S)NCCc1ccccc1)c1ccc(C)cc1
 : ·, ·, ·, 12, 8, 9, 2.7
> Cc1ccc(S(=O)(=O)Nc2c(C)n(C)n(-c3ccccc3)c2=O)cc1C(=O)OC(C)C(=O)N(C)c1ccccc1 (stereo not drawn)
 : -6, -3, 3288, 5, 8, -2, -6.0
> Cc1ccc(N(CC(=O)NC(C)(C)C)C(=O)CS(=O)CC(=O)Nc2ccc3c(c2)OCO3)cc1 (stereo not drawn)
 : 18, -3, 4068, 13, 11, 9, 2.6
> COC(=O)[C@]1(C)NC(c2ccc(SC3CCCCC3)c(OC)c2)C2C(=O)N(C)C(=O)C21 (stereo partly drawn)
 : ·, ·, ·, 1, 9, -1, 4.6
> O=S(=O)(NCCc1ccccn1)c1ccc(-c2ccccn2)s1
 : -27, -8, 4434, 1, 2, 0, 0.2
> COc1ccc(CCNC(=O)C(=O)NCC2OCCN2S(=O)(=O)c2cc(F)ccc2F)cc1OC (stereo not drawn)
 : 8, -9, 5837, -10, 1, 14, -12
> O=C1CCC(C(=O)OCC(=O)Nc2cc(Cl)ccc2F)=NN1
 : -4, ·, 3766, -2, 11, 9, 4.3
> Cc1cnc(C(=O)OCC(=O)NCCCc2ccccc2)cn1
 : -2, -1, 2873, -2, 3, 4, 7.4
> O=S(=O)(c1cccc(COc2ccc(Cl)cc2Cl)c1)N1CCOCC1
 : -13, 10, 5004, -16, 1, -7, -7.2
> N#CC(C#N)=Cc1ccc(N2CCCC2)cc1
 : -21, 11, 3357, 10, 3, 3, 13
> COc1ccc(-n2nc3c(c2NC(=O)c2ccco2)CS(=O)(=O)C3)cc1
 : -15, 5, 5441, 3, 3, 2, 2.8
> CC(C)CCN1CCN(Cc2nc(-c3ccccc3)cs2)CC1CCO (stereo not drawn)
 : 0, 5, 4645, -9, 6, 2, -4.4
> O=C(Nc1nccs1)C1CCCN1S(=O)(=O)c1ccc(Cl)cc1 (stereo not drawn)
 : -4, -11, 11397, -2, 1, 5, 2.0
> O=C(Cc1ccccc1)N/N=C/c1cc(Br)cc(Cl)c1O
 : -3, -4, 3170, ·, ·, ·, ·
